BJeLR viab HTS = BJeLR cell viability reduction | viability loss activity score, % (no concentration beside the values) | BJeLR fibroblasts viability, CellTiterGlo ATP luminescence, 48 h; HRASV12, hTERT and SV40 LT/ST transformed | actives 0.64% (n = 30,000); in the data active means viability loss activity score above about 50%; about a fifth of its hits are not listed in these tables;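 further: higher score means fewer live cells and less ATP luminescence; stock transfer was 50 or 100 nL into about 30 µL; 0% = vehicle wells and 100% = a reference killing control; one replicate is shown; the record names a cut of 85%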
A1 inhib = blocks A1 activity; actives 0.51% (n = 21,000); AID 2241; caspase activation, % (test concentration not listed); MEF A1-2A-BIM cells, caspase-Glo luminescence, 3 h; percent of clofoctol signal, DMSO as zero;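 active means most replicate scores above 10, or exactly half above 10 with mean activity above 10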;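 further: effector caspase 3 and 7 activity cleaving a DEVD luciferin substrate; 50 nL library stock added to about 30 µL; numbers are from one replicate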
Numbers without * were called inactive; x = not tested or not shown. A portion of the library; the hit share may differ from the screen's.

SMILES	BJeLR viab HTS	A1 inhib
C[C@@H]1CN([C@@H](C)CO)C(=O)c2cccc(NS(=O)(=O)c3ccc(Cl)cc3)c2O[C@@H]1CN(C)S(=O)(=O)c1cccs1	0.7	x
CC1=NNC(=O)C1Cc1ccccc1 (stereo unspecified)	1.9	-0.4
C[C@@H]1CN([C@@H](C)CO)C(=O)c2cccc(NC(=O)Nc3ccc4c(c3)OCO4)c2O[C@H]1CN(C)CC1CCCCC1	-3.9	x
Cc1ccc(S(=O)(=O)Nc2cccc3c2O[C@@H](CN(C)C(=O)Nc2cccc4ccccc24)[C@H](C)CN([C@H](C)CO)C3=O)cc1	1.1	x
C[C@@H]1CN([C@@H](C)CO)C(=O)c2cc(NC(=O)Cc3ccccc3)ccc2O[C@H]1CN(C)Cc1ccc2c(c1)OCO2	-1.0	-0.1
COC(=O)C1=C(N)OC2=C(CCCC2=O)C1c1cccnc1 (stereo unspecified)	-1.8	0.5
COC(=O)Cn1c(C(=O)OC)ccc1-c1ccco1	-7.1	0.2
CC(C)(C)c1csc(Cc2ccccc2Cl)n1	2.3	-0.1
C[C@H](CO)N1C[C@H](C)[C@H](CN(C)S(C)(=O)=O)Oc2c(NC(=O)Nc3ccc4c(c3)OCO4)cccc2C1=O	-1.8	x
CCc1nn(C(C)C(=O)NCCN2CCN(c3cccc(C)c3C)CC2)c(=O)c2cc3occc3n12 (stereo unspecified)	-0.3	0.1
Cc1c(CN2CCc3ccccc3C2)sc2ccccc12	-2.9	-0.1
C[C@H](CO)N1C[C@H](C)[C@H](CN(C)S(=O)(=O)c2cccs2)Oc2ccc(NC(=O)Cn3cnnn3)cc2C1=O	-3.1	-0.1
CC(C)CC1NC(=O)C(CC(C)C)N(O[C@@H]2O[C@H](COC(=O)CCC(=O)O)[C@@H](O)[C@H](O)[C@H]2O)C1=O (stereo partly specified)	47.4	2.4
Cc1cc(C)c(Cn2c(SCc3cccc(F)c3)nc3ccncc32)c(C)c1	-6.1	0.8
C[C@@H]1CN([C@H](C)CO)C(=O)c2cccc(NC(=O)c3cnccn3)c2O[C@H]1CN(C)C(=O)Nc1ccc(F)cc1	-8.4	x
ON=C(Cc1ccccc1)Cc1ccccc1	0.9	-0.3
Cc1cc(C(=O)N(C2CCCCC2)C2CCCCC2)no1	1.3	x
O=C(CCS(=O)(=O)c1ccc(Br)s1)NC1CCCC1	-0.8	x
CCN1C(=C(C#N)C#N)C=Cc2ccccc21	-2.0	0.5
Cc1sc(/N=C/c2ccccc2O)c(C#N)c1C	-0.9	-0.9
C[C@@H]1CN([C@@H](C)CO)C(=O)c2cccc(NS(=O)(=O)c3ccccc3)c2O[C@H]1CN(C)C	7.4	x
CC(C)NC(=O)Nc1cccc2c1O[C@H](CN(C)S(=O)(=O)c1cn(C)cn1)[C@H](C)CN([C@H](C)CO)C2=O	1.8	x
CC(C)NC(=O)N(C)C[C@H]1Oc2ccc(NC(=O)Cc3cn(C)c4ccccc34)cc2C(=O)N([C@H](C)CO)C[C@@H]1C	-2.6	0.4
C[C@@H]1CN([C@@H](C)CO)C(=O)c2cc(NC(=O)CCCN(C)C)ccc2O[C@H]1CN(C)Cc1ccc2c(c1)OCO2	-2.3	-0.1
Cc1noc(C)c1NC(=O)N(C)C[C@@H]1Oc2c(NS(=O)(=O)c3cccs3)cccc2C(=O)N([C@H](C)CO)C[C@H]1C	-0.6	x

(cont.)
SMILES	BJeLR viab HTS	A1 inhib
O=C(O)CCCC(=O)c1ccccc1	-2.4	0.8
O=C(NCc1ccccc1)c1cc2c(s1)CS(=O)(=O)C2	-3.0	0.0
CC(c1ccco1)N(C(=O)c1sc2ccccc2c1Cl)c1ccccn1 (stereo unspecified)	2.6	0.0
COc1ccc2ccc(=O)oc2c1CC=C(C)C	-9.8	0.3
Nc1ccc(C(=O)CC(=O)Nc2ccc(Cl)cc2)cc1	-8.6	0.4
COCc1cc(=O)n2[nH]c(Nc3cc(Cl)ccc3C)nc2n1	0.0	-0.1
CCC(C(=O)Nc1ccccc1F)n1c(SCc2ccc(F)cc2)nc2ccncc21 (stereo unspecified)	2.5	0.5
CC(C)N(Cc1ccccc1)C(=O)COc1ccccc1	1.2	0.9
COc1cc(-c2c(C)cc(O)cc2O[C@@H]2O[C@H](CO)[C@@H](O)[C@H](O)[C@H]2O)oc(=O)c1	-0.6	0.0
Cc1cc(C(=O)Nc2cccc3c2O[C@@H](CN(C)C(=O)Nc2ccccc2)[C@@H](C)CN([C@H](C)CO)C3=O)n(C)n1	-3.6	x
C[C@H]1CN([C@@H](C)CO)C(=O)c2cc(NS(C)(=O)=O)ccc2O[C@@H]1CN(C)S(C)(=O)=O	-0.6	-0.5
O=C(Nc1cccc(Cl)c1)OC1CCCCc2cccnc21 (stereo unspecified)	9.6	1.5
Cc1cc(C(F)(F)F)c2c(n1)sc1c(=O)[nH]c(C)nc12	0.7	0.5
COc1ccc(NC(=O)N(C)C[C@H]2Oc3c(NS(=O)(=O)c4cccs4)cccc3C(=O)N([C@H](C)CO)C[C@H]2C)cc1	-1.8	x
Cc1ccc(OCC(=O)Nc2ccc(-c3nn4c(C)nnc4s3)cc2)cc1	-1.9	x
C[C@@H]1CN([C@H](C)CO)C(=O)c2cc(NC(=O)CCN3CCOCC3)ccc2O[C@H]1CN(C)Cc1ccc2c(c1)OCO2	1.9	0.7
COc1ccc(NC(=O)Nc2ccc3c(c2)C(=O)N([C@H](C)CO)C[C@H](C)[C@@H](CN(C)C(=O)Nc2ccc4c(c2)OCO4)O3)cc1	-0.1	0.2
CC(C)NC(=O)CCn1c(=O)oc2ccccc21	-2.2	x
N=C1/C(=C/c2cccs2)C(=O)N=C2SC=C(c3ccccc3)N12	0.8	-1.6
C[C@@H]1CN([C@H](C)CO)C(=O)c2cccc(NS(=O)(=O)c3ccccc3)c2O[C@H]1CN(C)S(=O)(=O)c1ccccc1	-2.0	x
COc1ccc(NC(=O)N(C)C[C@@H]2Oc3c(cccc3N(C)C)C(=O)N([C@@H](C)CO)C[C@@H]2C)cc1	-2.5	x
Fc1ccc(C=Nc2ccc3ccccc3c2)cc1	-4.0	0.2
CCC(=O)N1CCc2cc(S(=O)(=O)NC(CC(C)C)C(=O)NC3CCCC3)ccc21 (stereo unspecified)	-1.5	x
C[C@@H]1CN([C@@H](C)CO)C(=O)c2cccc(N(C)C)c2O[C@H]1CN(C)S(=O)(=O)c1ccc(Cl)cc1	-0.5	x
CC1CCC(C(C)C)C(NC(=O)c2cccc3ccccc23)C1 (stereo unspecified)	0.8	-0.6

(further entries)
SMILES	BJeLR viab HTS	A1 inhib
Cc1ccc(NC(=O)CC(NCCN2CCOCC2)C(=O)O)cc1Cl (stereo unspecified)	-2.9	1.0
Cc1ccc(S(=O)(=O)Nc2ccc3c(c2)C(=O)N([C@H](C)CO)C[C@H](C)[C@H](CN(C)Cc2ccc(-c4ccccc4)cc2)O3)cc1	-2.2	-0.3
O=C(/C=C/c1ccc(Cl)cc1Cl)NCC1CCCO1 (stereo unspecified)	0.2	-2.7
NNC(=O)Cc1cc(Br)sc1Br	-5.5	0.9
COc1ccc2cc3cc(C(=O)NCCCN4CCCCCC4)sc3nc2c1	2.1	x
C=CCn1c(=S)[nH]c2ccccc2c1=O	-4.2	-0.3
COc1ccc(NC(=O)Nc2cccc3c2O[C@H](CN(C)S(=O)(=O)c2ccccc2)[C@@H](C)CN([C@@H](C)CO)C3=O)cc1	-4.2	x
CCS(=O)(=O)CCSc1nc(C)cc(C)n1	-1.8	0.5
O=C(CSc1nnnn1-c1ccccc1)c1ccccc1	-6.7	-0.3
Cc1ccccc1NC(=O)c1cnn2ccccc12	10.2	-2.7
COc1ccc(S(=O)(=O)N(C)C[C@@H]2Oc3ccc(NS(=O)(=O)c4cccs4)cc3C(=O)N([C@@H](C)CO)C[C@H]2C)cc1	-3.0	-0.1
CC(=O)N[C@H]1[C@H](Oc2nc3cc(C)ccc3o2)O[C@H](CO)[C@@H](O)[C@@H]1O	1.1	-0.4
COc1ccc(NC(=O)N(C)C[C@H]2Oc3ccc(NC(=O)C4CC4)cc3C(=O)N([C@@H](C)CO)C[C@@H]2C)cc1	3.7	1.5
N#CC1=C(SCC(=O)Nc2ccccc2)NC(=O)CC1c1ccccc1 (stereo unspecified)	-3.0	-0.8
N#CC(=C1SCCCS1)S(=O)(=O)c1cccs1	-0.2	1.1
Cc1noc(C)c1NC(=O)Nc1cccc2c1O[C@H](CN(C)C(=O)Nc1ccc3c(c1)OCO3)[C@H](C)CN([C@@H](C)CO)C2=O	-3.3	x
C[C@@H]1CN([C@H](C)CO)C(=O)c2cccc(NS(=O)(=O)c3ccc(F)cc3)c2O[C@@H]1CN(C)CC1CC1	-3.5	x
CCCCC/C=C/C(=O)CCc1ccc(O)c(OC)c1	-6.3	0.3
O=c1c2ccccc2c(C=Nc2cccc(C(F)(F)F)c2)c(O)n1-c1ccccc1	-4.7	5.6
NC(=O)c1c(-c2ccc(Cl)cc2)csc1NC(=O)CCCc1ccccc1	-6.1	-0.1
COc1ccc(/C=C2/C(=O)C(C(C)C)=CCC2C)cc1 (stereo unspecified)	13.8	-0.2
C/C=C(\C)C(=O)OC(C)(C)C1Cc2cc3ccc(=O)oc3cc2O1 (stereo unspecified)	-2.4	-0.4
COc1ccc(NC(=O)Nc2cccc3c2O[C@@H](CN(C)C)[C@@H](C)CN([C@H](C)CO)C3=O)cc1	3.1	x
CCC1c2ccc(C)n2CCN1C(=O)NC12CC3CC(CC(C3)C1)C2 (stereo unspecified)	5.7	0.7
COc1ccc(NC(=O)N(C)C[C@H]2Oc3c(NS(=O)(=O)c4ccc(OC)cc4)cccc3C(=O)N([C@@H](C)CO)C[C@@H]2C)cc1	2.3	x

Reformatted: eleven of the compounds above
molecule | BJeLR viab HTS | A1 inhib
Cc1ccc(NC(=O)CC(NCCN2CCOCC2)C(=O)O)cc1Cl (stereo unspecified) | -2.9 | 1.0
Cc1ccc(S(=O)(=O)Nc2ccc3c(c2)C(=O)N([C@H](C)CO)C[C@H](C)[C@H](CN(C)Cc2ccc(-c4ccccc4)cc2)O3)cc1 | -2.2 | -0.3
O=C(/C=C/c1ccc(Cl)cc1Cl)NCC1CCCO1 (stereo unspecified) | 0.2 | -2.7
NNC(=O)Cc1cc(Br)sc1Br | -5.5 | 0.9
COc1ccc2cc3cc(C(=O)NCCCN4CCCCCC4)sc3nc2c1 | 2.1 | x
C=CCn1c(=S)[nH]c2ccccc2c1=O | -4.2 | -0.3
COc1ccc(NC(=O)Nc2cccc3c2O[C@H](CN(C)S(=O)(=O)c2ccccc2)[C@@H](C)CN([C@@H](C)CO)C3=O)cc1 | -4.2 | x
CCS(=O)(=O)CCSc1nc(C)cc(C)n1 | -1.8 | 0.5
O=C(CSc1nnnn1-c1ccccc1)c1ccccc1 | -6.7 | -0.3
Cc1ccccc1NC(=O)c1cnn2ccccc12 | 10.2 | -2.7
COc1ccc(S(=O)(=O)N(C)C[C@@H]2Oc3ccc(NS(=O)(=O)c4cccs4)cc3C(=O)N([C@@H](C)CO)C[C@H]2C)cc1 | -3.0 | -0.1

Additional structures:
SMILES	BJeLR viab HTS	A1 inhib
Cc1cc(C(=O)Nc2cccc3c2O[C@H](CN(C)Cc2ccc(Cl)c(Cl)c2)[C@H](C)CN([C@@H](C)CO)C3=O)n(C)n1	1.1	x
C[C@H](CO)N1C[C@H](C)[C@@H](CN(C)C(=O)NC2CCCCC2)Oc2ccc(NC(=O)Nc3ccc4c(c3)OCO4)cc2C1=O	4.4	-0.4
Cc1noc(C)c1NC(=O)Nc1cccc2c1O[C@@H](CN(C)C(=O)Nc1ccccc1)[C@@H](C)CN([C@@H](C)CO)C2=O	-9.7	x
CCCCn1c(-c2ccccc2)nc(=S)c2c1CCCC2	10.7	1.1
Cc1ccc(CCSc2ccc(Cl)c(Cl)c2)cn1	7.9	0.3
O=c1c(Cl)c(N2CCCC2)cnn1-c1ccccc1	-3.0	-0.8
C[C@H](CO)N1C[C@H](C)[C@@H](CN(C)C(=O)NC2CCCCC2)Oc2ccc(NC(=O)Nc3ccc(F)cc3)cc2C1=O	-11.3	-0.5
CSCCC(C(=O)O)N1C(=O)/C(=C/c2cccnc2)SC1=S (stereo unspecified)	8.5	x
COC(=O)/C(C#N)=C1\NC(C)=NC(SC)=C1C#N	-3.7	0.4
Clc1cccc(Cl)c1-c1cc(-c2ccccn2)on1	-0.8	-3.2
Cc1ccc(S(=O)(=O)N(C)C[C@H]2Oc3c(NC(=O)c4ccncc4)cccc3C(=O)N([C@@H](C)CO)C[C@H]2C)cc1	10.4	x
C[C@@H]1CN([C@@H](C)CO)C(=O)c2cc(NC(=O)c3ccncc3)ccc2O[C@@H]1CN(C)C(=O)Nc1ccc(F)cc1	0.1	1.0
C[C@@H]1CN([C@H](C)CO)C(=O)c2cccc(NC(=O)Nc3ccccc3)c2O[C@@H]1CN(C)Cc1ccccc1	-10.0	x
C[C@@H]1CN([C@@H](C)CO)C(=O)c2cccc(NC(=O)c3ccc(-c4nccs4)cc3)c2O[C@H]1CN(C)Cc1ccc(Oc2ccccc2)cc1	-4.7	x
C[C@@H]1CN([C@H](C)CO)C(=O)c2cc(NC(=O)CCCCCC(=O)Nc3ccccc3N)ccc2O[C@@H]1CN(C)C(=O)Nc1ccccc1	-1.9	x
CCC1Oc2ccccc2N(CC(=O)N2CC(C)CC(C)C2)C1=O (stereo unspecified)	-2.6	0.4
C[C@@H]1CN([C@@H](C)CO)C(=O)c2cccc(NS(=O)(=O)c3ccc(Cl)cc3)c2O[C@H]1CN(C)C(=O)NC1CCCCC1	-3.0	x
CCN(CC)S(=O)(=O)c1ccc(Cl)c(C(=O)Oc2ccc(C)cc2-n2nc3ccccc3n2)c1	8.7	-5.0
COC(=O)C1C(=O)NC(SCc2ccccc2)=C(C#N)C1c1ccccc1 (stereo unspecified)	1.2	0.6

Screening results: PubChem, Broad Institute
